Bioassay records: PubChem, National Center for Advancing Translational Sciences (NCATS)
NS1 function inh: influenza NS1 inhibition; Potency, µM (series often up to 46.1 µM), inactives show top-dose activity, positive = more growth; hit rate 0.4% among 270,000; S. cerevisiae slowed by influenza A NS1, growth recovery by OD600; AID 2326; also: actives are rising curves; nearly all actives have a fitted effect of over 50% in size
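Recovery from NS1-induced slow growth read by OD600 in budding yeast switched to galactose assay medium (pH 6.0, -URA) at 1:100 dilution. Compound 23 nl per well; the matching strain lacking NS1 serves as control.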
LASV entry inh: inhibitors of Lassa virus binding or cell entry; AID 540256; Lassa virus pseudotype entry inhibition, cell reporter; control for the full effect not named in the record; Potency, µM (top dose mostly 37.9 µM), for inactives: at the top dose activity change, negative = inhibition, actives largely listed as inhibitors; hit rate 1.2% among 300,000; active means well fitted inhibition curve with a large enough effect; inconclusive means small, poorly fitted or top-dose-only effect, or effect the other way; inactive means flat fitted curve, though single readings scatter; tested in HEK293 cells; also: % is scaled to controls: 0 for no effect and ±100 for the full control effect; nearly all actives have a fitted effect of over 50% in size; luciferase read-out
SARS PLpro yeast: inhibitors of SARS-CoV papain-like protease in yeast | AID 485353 | S. cerevisiae expressing SARS-CoV PLpro, growth rescue; control for the full effect not named in the record | Potency, µM (top dose mostly 32.9 µM), inactives show top-dose activity, positive = growth rescue | hit rate 0.19% among 330,000; also: 0% is about no effect; nearly all actives have a fitted effect of over 55% in size; growth read by luminescence after 48 h
MARV entry inh: Marburg virus entry inhibition. Marburg virus pseudotyped entry inhibition, cell reporter; control for the full effect not named in the record; about a third of the inactives were read at about 46 µM. Potency, µM (series often up to 37.8 µM), for inactives: top-dose activity change, negative = inhibition, actives largely listed as inhibitors. hit rate 1.8% among 300,000. AID 540276; active = well fitted inhibition curve with a large enough effect; inconclusive = small, poorly fitted or top-dose-only effect, or effect the other way; inactive = flat fitted curve, though single readings scatter; tested in HEK293 cells; about a fifth of its hits are not listed in these tables; also: % is scaled to controls: 0 for no effect and ±100 for the full control effect; luciferase read-out
Cruzain inh noDet: blocks cruzain activity in detergent-free assay. P25779. purified cruzain, Z-FR-AMC fluorescence, no detergent. Potency, µM, for inactives: max response, negative = inhibition, usual class: inhibitors. hit rate 2.3% among 200,000. AID 1476; active = well fitted curve in the direction sought with a large enough effect; inconclusive = small, poorly fitted or top-dose-only effect, or another doubt; inactive = no such curve, though single readings can be large; an effect the other way counts as inactive or inconclusive;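 also: plate controls were enzyme without inhibitor for no effect and buffer without enzyme for full effect; nearly all actives have a fitted effect of over 40% in size; top concentration of the series not given in the record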
Target sequence (P25779 123-467 limits assumed): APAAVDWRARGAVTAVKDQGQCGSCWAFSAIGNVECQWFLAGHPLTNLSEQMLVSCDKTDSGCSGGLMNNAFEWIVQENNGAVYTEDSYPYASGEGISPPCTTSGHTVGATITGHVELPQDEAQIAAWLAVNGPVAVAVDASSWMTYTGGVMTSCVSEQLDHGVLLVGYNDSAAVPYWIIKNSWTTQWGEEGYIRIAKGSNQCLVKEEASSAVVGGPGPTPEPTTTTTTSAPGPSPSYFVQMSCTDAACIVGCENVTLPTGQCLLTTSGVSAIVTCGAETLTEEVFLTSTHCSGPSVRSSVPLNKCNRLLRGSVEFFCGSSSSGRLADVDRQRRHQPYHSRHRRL
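Detergent-free condition (0.00005% Triton X-100) in acetate buffer pH 5.5 with DTT. 1.5 nM enzyme and compound were pre-mixed 15 min, then 2 uM Z-FR-AMC substrate added; reaction progress from fluorescence change between first and third reads (60 s).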
2A StopGo: lowers the luciferase signal of an FMDV 2A StopGo reporter; human cells with a luciferase reporter of 2A StopGo recoding; control for the full effect not named in the record; Potency, µM (series often up to 57.9 µM), for the others: at the highest dose signal change, negative = less light; hit rate 1.2% among 410,000; AID 1159524; active = well fitted falling curve with a large enough effect; inconclusive = small, poorly fitted or top-dose-only effect; inactive = no such curve, though single readings can be large or run the other way; tested in HEK293T cells; also: % is scaled to controls: 0 for no effect and ±100 for the full control effect; nearly all actives have a fitted effect of over 45% in size; luciferase light after 4 h
RE007 growth inh: less growth of the S. pombe RE007 Vpr strain; S. pombe RE007 Vpr strain, BacTiter-Glo ATP luminescence, 24 h; control for the full effect not named in the record; hit rate 0.21% among 360,000; Potency, µM (titrated, usually from 92.2 µM), without a hit: top-dose activity change, negative = less growth; AID 651644; active = well fitted falling curve with a large enough effect; inconclusive = small, poorly fitted or top-dose-only effect; inactive = no such curve, though single readings can be large or run the other way;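 also: % is scaled to controls: 0 for no effect and ±100 for the full control effect; nearly all actives have a fitted effect of over 50% in size; the assay follows cell death caused by Vpr and the record does not say whether a fall means rescue or toxicity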
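Fission yeast strain RE007, carrying one chromosomally integrated HIV-1 vpr copy, was seeded at OD 0.01 in PMG+AL medium with 23 nL pinned compound. After 24 h at 30 °C and 99% humidity, viability was read by BacTiter-Glo luminescence.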
Cruzain inh Det: blocks cruzain activity in presence of Triton detergent; hit rate 0.43% among 200,000; AID 1478; purified cruzain, Z-FR-AMC fluorescence, 0.01% Triton; P25779; Potency, µM, for inactives: max response, negative = inhibition, usual class: inhibitors; active = well fitted curve in the direction sought with a large enough effect; inconclusive = small, poorly fitted or top-dose-only effect, or another doubt; inactive = no such curve, though single readings can be large; an effect the other way counts as inactive or inconclusive;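 also: plate controls were neutral wells for no effect and buffer without enzyme for full effect; nearly all actives have a fitted effect of over 40% in size; top concentration of the series not given in the record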
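Sodium acetate buffer (100 mM, pH 5.5) containing 5 mM DTT and 0.01% Triton X-100 hosted 1.5 nM cruzain and test compound for 15 min at room temperature. Cleavage of 2 uM Z-FR-AMC was then tracked by fluorescence.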
An asterisk follows results filed as active; ? = inconclusive; . = no result given; & = joins results of further samples; [ ] = remark or other dose. Unless noted, calls follow the shape of the dose curve; as a rule, active means well fitted rising curve with a large enough effect; inconclusive means small, poorly fitted or top-dose-only effect; inactive means no such curve, though single readings can be large or run the other way. Potency is read from the fitted curve at half-maximal effect.

SMILES	NS1 function inh	LASV entry inh	SARS PLpro yeast	MARV entry inh	Cruzain inh noDet	2A StopGo	RE007 growth inh	Cruzain inh Det
COc1ccc(CN2C(=O)c3cccnc3C2=O)cc1S(=O)(=O)N1CC(C)Oc2ccccc21 (centres undefined)	-12%	.	2%	.	.	-4%	2%	.
CC(C)(C)c1ccc(-c2csc(NC(=O)CN3C(=O)NC4(CCCCC4)C3=O)n2)cc1	2%	?	-3%	?	7.9µM*	?	-11%	1.6%
CCOC(=O)c1cc2c(=O)n3ccccc3nc2n(Cc2ccco2)c1=NC(=O)c1cccc(C)c1	.	-6%[46.1 µM]	.	?	-1%	7%	.	-12%
COc1cc(OC)cc(-n2nnnc2SCC(=O)NC2CCCC2)c1	-4%	6%	2%	-9%	1%	-7%	-7%	1.4%
C(=N\N1CCN(C2c3ccccc3-c3ccccc32)CC1)/c1ccccn1	7%	9%	4%	?	-8%	?	23%	-4.6%
Cc1ccc(OCC(=O)Nc2ccc3c(c2)OCCO3)cc1C	.	?	-3%	?	.	-21%	-14%	.
COCCn1cnnc1SCC(=O)Nc1sc2c(c1C#N)CCC2	.	2%	-6%	?	.	-7%	-15%	.
NCCCCCNC(=O)/C=N\O	0%	1%	6%	11%[46.1 µM]	-7%	0%	2%	1.9%
Cc1cc(C)c(NC(=O)CN2C(=O)c3cccnc3Sc3ccccc32)c(C)c1	.	11%[46.1 µM]	.	.	?	26%	.	-2.4%
CC(=O)Oc1ccc(C(=O)Nc2nccs2)cc1	-8%	.	-6%	.	4%	53%[activator]	15%	-2.7%
O=C(NCC1CCCO1)c1nn2cccnc2c1Cl (centres undefined)	16%	14%	5%	?	-11%	24%	-12%	0.7%
Cc1cccc[n+]1CC(=O)c1ccc2c(c1)OCCO2	4%	-3%	-5%	4%	8%	0%	2%	-0.9%
COc1ccc(OC)c(Nc2nc(-c3sc(N)nc3C)cs2)c1	-37%	-10%	-2%	-24%	25µM*	-6%	-9%	?
CCc1ccc(NC(=O)CC2C(=O)N(c3ccc(OC)cc3)C(=O)N2Cc2ccc(OC)cc2)cc1 (centres undefined)	.	-19%[46.1 µM]	.	.	8%	22%	.	-2.4%
Cc1ccsc1C(=O)OCc1csc(-c2ccccc2)n1	-57%	?	-12%	?	-8%	-52%	-13%	-3.1%
COc1cc(NC(=S)N2CCN(CCO)CC2)c(OC)cc1Cl	-8%	1%[46.1 µM]	-1%	15%[46.1 µM]	.	-9%	12%	.
CS(=O)(=O)N(CC(=O)N1CCCCC1)Cc1ccc(Cl)cc1	-6%	?	8%	?	10%	-10%	7%	-3.5%
CS(=O)(=O)N(CC(=O)NC1CCCC1)C1CCCCC1	-1%	6%	-1%	1%[46.1 µM]	.	-4%	-1%	.
Cc1ccc(/C=N/NC(=O)c2ccc(C(=O)N/N=C/c3ccc(C)s3)o2)s1	3%	-3%	-2%	-3%[46.1 µM]	-1%	10%	-1%	0.8%
CCOC(=O)c1ccc(NC(=O)CCc2c(C)nc3c(c(C)nn3C(C)(C)C)c2C)cc1	.	-2%[46.1 µM]	.	-25%[46.1 µM]	9%	-7%	.	-7.1%

The list continues:
SMILES	NS1 function inh	LASV entry inh	SARS PLpro yeast	MARV entry inh	Cruzain inh noDet	2A StopGo	RE007 growth inh	Cruzain inh Det
c1ccc2nc3c(nc2c1)CCc1nonc1-3	-12%	12%	1%	24%	-1%	-4%	-17%	-1.5%
CC(C)c1nc(SCC(=O)Nc2cccc(S(N)(=O)=O)c2)n[nH]1	1%	-5%	2%	1%	-1%	-10%	-12%	7.4%
CCN(Cc1ccccc1)C(=O)c1cc2cc(OC)c(OC)cc2[nH]1	-1%	2%	0%	?	.	7%	0%	.
O=C(NC1=NCCS1)c1ccc(Cl)c(S(=O)(=O)N2CCCC2)c1	.	3%[46.1 µM]	-5%	6%[46.1 µM]	.	15%	5%	.
CCCOc1ccc(Cc2nn[nH]n2)cc1	-3%	-1%	-5%	-2%&-2%[46.1 µM]	-2%	10%	18%	4.5%
Cc1ccc(-c2cc(C(=O)Nc3ccc(S(=O)(=O)Nc4cc(C)on4)cc3)c3ccccc3n2)c(C)c1	16%	-15%	7%	-18%[46.1 µM]	-26%	-30%	10%	-13%
O=C(NCCCN1CCOCC1)c1onc(CSc2nc3ccccc3[nH]2)c1C(=O)NCCCN1CCOCC1	-14%	.	-7%	.	.	-5%	-3%	.
CCOC(=O)c1ccc(-c2c(-c3ccc4c(c3)OCO4)noc2-c2ccsc2)cc1F	-4%	.	-2%	.	.	-28%	13%	.
CC1Cn2c(nc3sc4c(c3c2=O)CC(C)(C)OC4)N1CCO (centres undefined)	4%	.	2%	.	.	-10%	-8%	.
O=C(COC(=O)c1ccc(Cl)nc1)Nc1ccc(N2CCOCC2)cc1	.	2%	2%	18%[46.1 µM]	.	-4%	-7%	.
O=C(NCc1ccccc1)C1CCCN(S(=O)(=O)c2cccc3nonc23)C1 (centres undefined)	6%	0%	-10%	-7%	?	6%	1%	-4.2%
O=C(NCc1ccccc1)c1cc(S(=O)(=O)N2CCCCC2)ccc1N1CCOCC1	.	?	0%	?	.	-11%	2%	.
Cc1ccc(/C=C2/CCc3c([nH]c4ccccc34)C2=O)cc1	3%	?	2%	?	32µM*	29%	6%	5.7%
O=C(O)c1cccc(NC(CNS(=O)(=O)c2ccc(Cl)cc2)c2ccccc2)c1 (centres undefined)	16%	21%	0%	0%[46.1 µM]	.	12%	1%	.
Cc1ccccc1N1CCN(C2CCCN(C(=O)c3ccsc3)C2)CC1 (centres undefined)	-3%	-6%	2%	-9%	.	-20%	-16%	.
CCOc1ccccc1C(=O)NC(C(=O)OCC(=O)Nc1nnc(-c2ccccc2)o1)C(C)C (centres undefined)	-33%	-14%	-10%	-3%	12%	-13%	-1%	-26%
CC(=O)NS(=O)(=O)c1ccc(NC(=O)C(Sc2ccccc2)c2ccccc2)cc1 (centres undefined)	15%	-2%	3%	11%	?	-22%	-7%	0.7%
BrC(/C=N/Nc1nc(N2CCOCC2)nc(N2CCOCC2)n1)=C/c1ccccc1	-17%	-6%	-20%	?	?	-2%	?	-14%
Cc1nc2ccccc2c(=O)n1CCN1CCOCC1	-2%	14%	-7%	17%	-7%	.	-7%	2.1%
Cc1c(OC(C)C(=O)N[C@@H](Cc2ccccc2)C(=O)O)ccc2c3c(c(=O)oc12)CCCC3 (some centres undefined)	?	.	5%	.	.	-22%	-7%	.

More records follow:
SMILES	NS1 function inh	LASV entry inh	SARS PLpro yeast	MARV entry inh	Cruzain inh noDet	2A StopGo	RE007 growth inh	Cruzain inh Det
COc1cc(O)oc1C=Nc1ccc(Oc2ccccc2)cc1	-13%	-23%	-15%	2%	-12%	54%[activator]	-11%	-7.2%
CC(C)c1ccc2c(c1)NC(c1ccncc1)=NC(c1cccs1)=N2	.	1%[46.1 µM]	.	?	2%	-8%	.	-9.1%
CCC(=O)c1ccc(OCC(=O)OC(C)C(=O)NCc2ccc3c(c2)OCO3)cc1 (centres undefined)	.	3%	-1%	?	.	0%	-1%	.
O=C(CC1C(=O)NCCN1C/C=C/c1ccccc1)NCCc1cccnc1 (centres undefined)	0%	9%	-1%	-3%[46.1 µM]	.	-2%	-14%	.
Cc1c(CCOC(=O)c2ccccc2)sc[n+]1Cc1ccccc1	-6%	-22%	4%	2%	1%	-14%	51%	-0.1%
COc1ccc(-c2nc3sc(CCNC(=O)C(=O)Nc4cc(F)ccc4F)c(C)n3n2)cc1	.	1%[46.1 µM]	.	.	-13%	13%	.	0.9%
COCCCNC(=O)C(=O)N/N=C/c1cc2c(cc1Br)OCO2	1%	?	-2%	-5%	.	18%	1%	.
CCOP(=O)(OCC)/C(C#N)=C/c1ccoc1	9%	10%	-3%	20%[46.1 µM]	.	-9%	2%	.
COc1ccccc1NC(=O)NNC(=O)CCc1ccccc1	1%	9%[46.1 µM]	1%	-16%[46.1 µM]	.	10%	1%	.
CCCOc1ccc(C(=O)NC(=S)N2CCN(c3cc4c(cc3F)c(=O)c(C(=O)O)cn4CC)CC2)cc1	-1%	10%	2%	19%[46.1 µM]	.	-11%	-2%	.
O=C1c2cccc3c2N(CCC3)C(=O)C1(F)c1ccccc1 (centres undefined)	.	23%	.	0%[46.1 µM]	.	-13%	4%	.
COc1ccc(-c2onc(C)c2-c2ccc(C(=O)OC(C)C)o2)c(O)c1	-68%	?	-20%	?	0%	-25%	?	-21%
COc1cccc(CC2(CO)CCCN(Cc3cn[nH]c3-c3cc(C)ccc3C)C2)c1 (centres undefined)	3%	-4%[46.1 µM]	1%	?	.	-13%	9%	.
O=C(N/N=C/c1ccncc1)c1sc2ccccc2c1Cl	-40%	.	-10%	.	.	47%[activator]	-24%	.
CCOC(=O)c1[nH]c2c(c1C)C(=O)CC(c1ccc(OCC)c(OC)c1)C2 (centres undefined)	-6%	-1%	1%	-19%	?	0%	-5%	2.4%
COCCN(C(=O)COC(=O)c1cnc(C)cn1)c1c(N)n(Cc2ccccc2)c(=O)[nH]c1=O	.	15%	2%	-1%[46.1 µM]	.	32%[activator]	4%	.
C=C(C)CSc1nc2c(cc1C#N)CCC2	-66%	4%	-1%	28%	-2%	27%	-8%	-0.9%
COC(=O)c1ccc(/C=C2/SC(=S)N(CCCC(=O)Nc3ccc(O)cc3)C2=O)cc1	16%	.	0%	.	.	-15%	24%	.
NNC(=O)c1sc2cc(C(F)(F)F)cnc2c1-c1cccnc1	9%	-16%	1%	8%[46.1 µM]	.	2%	-5%	.
CC1CCCCN1C(=O)CSc1nnc(-c2ccco2)o1 (centres undefined)	0%	?	1%	-2%[46.1 µM]	.	13%	12%	.
O=C1OC(Nc2ccc3ncccc3c2)c2ccccc21 (centres undefined)	13%	3%	2%	5%	-6%	.	-11%	-5.4%
CCN(CC)S(=O)(=O)c1cc(NC(=O)c2ccc(-n3cncn3)c([N+](=O)[O-])c2)ccc1C	-6%	?	0%	?	.	13µM*	-4%	.
